YopH inh: YopH tyrosine phosphatase inhibitors, primary screen, biochemical, fluorescence Ex485/Em525; 0.16% of 140,000 active; AID 898, 2007; inhibition, %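 (about 10 µM by stock and volumes)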; YopH tyrosine phosphatase [Yersinia enterocolitica];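 active = inhibition of 50% or more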;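 note: controls were vehicle for no effect and minimum signal wells for full effect; inactives centre near -20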
Mtb betalactam: beta-lactam sensitization of Mtb H37Rv, H37Rv; AID 434955, 2010; 0.27% of 330,000 active; M. tuberculosis H37Rv growth with meropenem, percent inhibition; hits of this screen are not shown here; inhibition, % at 25 µM;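 active = about 74% or more and at least 40 points above the plate without the antibiotic, then above 30% in a dose series; inconclusive = first-round hits that could not be retested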;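 note: growth measured after seven days incubation then overnight dye step; 0% = bacteria only wells and 100% = bacteria with antibiotic; twin plates without the antibiotic show which effects depend on it; some results filed as inactive read as strong as hits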
RecA intein inh: Mtb RecA intein splicing inhibitors, primary screen, biochemical, fluorescence, HTS; Protein RecA (Mycobacterium tuberculosis (strain ATCC 25618 / H37Rv)), P9WHJ3; cell-free RecA intein splicing; inhibition, %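 (about 9 µM by stock and volumes)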; 0.75% of 290,000 active; in the data active = inhibition above about 30%; inconclusive = no clear call, values can overlap the other calls;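 note: 0% = vehicle wells and 100% = reference inhibitor control wells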
Target sequence (P9WHJ3 whole entry, looked up): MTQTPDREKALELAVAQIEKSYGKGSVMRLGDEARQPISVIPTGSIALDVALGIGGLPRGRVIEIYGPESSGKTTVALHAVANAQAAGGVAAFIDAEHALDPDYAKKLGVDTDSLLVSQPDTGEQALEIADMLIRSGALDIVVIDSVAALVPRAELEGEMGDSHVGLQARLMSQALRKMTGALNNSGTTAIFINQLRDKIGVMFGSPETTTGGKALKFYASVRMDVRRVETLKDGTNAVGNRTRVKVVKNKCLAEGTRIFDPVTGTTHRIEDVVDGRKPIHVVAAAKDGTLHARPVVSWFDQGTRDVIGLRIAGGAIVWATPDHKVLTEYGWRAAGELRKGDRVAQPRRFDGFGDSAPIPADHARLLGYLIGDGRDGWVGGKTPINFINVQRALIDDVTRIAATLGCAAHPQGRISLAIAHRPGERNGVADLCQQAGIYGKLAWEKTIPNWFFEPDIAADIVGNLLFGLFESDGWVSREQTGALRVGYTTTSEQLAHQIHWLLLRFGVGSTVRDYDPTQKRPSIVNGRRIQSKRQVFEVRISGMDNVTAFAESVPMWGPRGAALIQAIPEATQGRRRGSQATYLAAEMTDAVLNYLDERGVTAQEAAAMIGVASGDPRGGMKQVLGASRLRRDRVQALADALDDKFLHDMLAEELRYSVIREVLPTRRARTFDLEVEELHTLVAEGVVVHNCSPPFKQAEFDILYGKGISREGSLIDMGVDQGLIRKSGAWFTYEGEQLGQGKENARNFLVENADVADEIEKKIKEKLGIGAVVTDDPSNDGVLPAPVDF
Arbovirus anti: antivirals against arbovirus infection, primary screen, cell-based, full library, 10K replicate subset. arbovirus infection cell-based antiviral screen. inhibition, % at 10 µM. 0.37% of 200,000 active;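 active = inhibition from about 30%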;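 note: bluetongue infection of BSR cells; cell survival read as ATP light after 72 h; 0% = infected wells without compound and 100% = uninfected wells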
Mtb growth: M. tuberculosis H37Rv growth inhibitors, H37Rv strain (AID 1626) | one-dose inhibition, % at 10 µM; IC50 in µM for titrated hits | M. tuberculosis H37Rv growth inhibition; higher % means a stronger effect | 0.95% of 220,000 active;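 active = confirmed in a dose series; inconclusive = inhibition above 80% but not taken into the dose series; inactive = below 80% or under 30% at every dose of the series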;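 note: bacteria incubated seven days before Alamar blue readout; 0% = bacteria only wells and 100% = bacteria with antibiotic wells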
Arbovirus anti repeat: further read-out of Arbovirus anti, marked with its call; inhibition, %; measured here: 10K subset replicate screen; many hits read low in the repeat;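 first of two repeat runs on a subset; 0% = infected and 100% = uninfected wells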
Active calls of the source: *; ? = inconclusive; . = not tested or not shown. This is a subset, so the mix of outcomes need not match the whole.

SMILES	YopH inh	Mtb betalactam	RecA intein inh	Arbovirus anti	Mtb growth	others
CCOc1ccc(NC(=O)CC2C(=O)N(C)C(=S)N2Cc2ccc3c(c2)OCO3)cc1 (centres undefined)	-41	-13	-1.5	-3	1%
CC1CC2(O)c3nonc3CCC2N1O (centres undefined)	-32	-1	-2.3	6	-5%
O=C1C(=O)c2c(C(=O)c3ccccc3)coc2-c2ccccc21	75*	0	8.4	-33	5%
CCCCCCCCC(=O)NNC(=O)c1c(O)c2ccccc2n(CCC)c1=O	.	1	-3.4	-7	1%
OC1CCCN(Cc2ccc3c(c2)Cc2ccccc2-3)C1 (centres undefined)	-43	-1	-0.4	-30	4%
CN(C)CCCNC(=S)N1CCn2c(nc3ccccc32)C1	-14	-4	-1.1	15	-7%
COCCC(=O)N1CCC(Oc2ccc(C(=O)NCCc3ccccn3)cc2)CC1	.	-4	1.3	.	.
Cc1ccc(-c2csc3nc[nH]c(=S)c23)cc1C	-22	75	3.9	-31	20µM*
CC(CCN1CCN=C1Nc1ccccc1)c1ccccc1 (centres undefined)	.	-17	1.3	.	.
CCOc1ccc(S(=O)(=O)N2CCCCC2)c2ccccc12	-47	2	10	4	.
COc1ccc(-c2c(C)nn3c(N4CCN(Cc5ccccc5)CC4)cc(C)nc23)cc1OC	10	3	-1.4	-7	?
CC(C)=CCOc1ccc([C@@H]2COc3c(ccc4c3C=CC(C)(C)O4)C2)c(O)c1	.	99	.	.	19µM*
COc1ccc(S(=O)(=O)N[C@H](C(=O)N2CC[C@@]3(O)CCCC[C@H]3C2)c2ccccc2)cc1	-46	-4	2.2	10	3%
Cn1c(SCC(=O)NC2CC2)nnc1-c1ccccc1	.	-12	-1.2	.	.
O=C(c1ccccc1)c1nc2ccccc2n(CCCn2c(=O)c(C(=O)c3ccccc3)nc3ccccc32)c1=O	1	-23	3.3	2	-4%
CC(C)C[C@H](NC(=O)c1cc2cc(Cl)ccc2n1C)C(=O)N1CCC[C@H]1C(=O)O	.	-2	-2.0	.	.
CCCC[C@@H]1CCCO[C@@](C(=O)NCc2cc(C)n(C)n2)(C(F)(F)F)C1	.	-4	1.1	.	-4%
COc1ccc(S(=O)(=O)N(CC(=O)Nc2ccc(S(=O)(=O)N3CCOCC3)cc2)c2ccccc2)cc1	-20	5	1.4	1	7%
Cc1cc(C)c(S(=O)(=O)c2ccccc2)c(OC(=O)c2cc(F)c(F)cc2Cl)n1	-14	-2	3.9	10	3%
Fc1ccc(NCc2nnc(SCc3nnc(-c4ccccc4)o3)n2Cc2ccccc2)cc1	-21	-4	-5.1	2	-2%
Cc1ccc(C2(CC(=O)O)CCOC(C)(C)C2)cc1 (centres undefined)	-11	3	0.8	-2	-7%
CN(C)c1nc(C(F)(F)F)cc(=O)[nH]1	.	11	-0.1	2	0%
CCOC(=O)C1=C(C)NC(=S)NC1C (centres undefined)	.	-3	-1.7	1	-8%
COCc1[nH]nc2c1C(c1cccc(OC)c1)C(C#N)=C(N)O2 (centres undefined)	1	-12	57*	-3	-1%
CC(=O)Nc1ccc(S(=O)(=O)Nc2ccc(NC(=O)c3ccco3)cc2)cc1	-81	3	-2.5	4	1%
(list continues)
SMILES	YopH inh	Mtb betalactam	RecA intein inh	Arbovirus anti	Mtb growth	others
CC(CC(=O)NCc1ccccc1)C1CCCO1 (centres undefined)	0	-8	-0.7	-3	-10%
CCOC(=O)C1=C(N)OC2=C(C(=O)CCC2)C1c1ccccc1OCC (centres undefined)	-9	-4	-1.8	2	-5%	Arbovirus anti repeat=4
Cn1ncc(Cl)c1C(=O)N/N=C/c1cccc(OC2CSC2)c1	-11	8	-0.4	1	10%
Cc1ccc(NC(=O)CN2C(=O)C3CC=C(Cl)CC3C2=O)cc1 (centres undefined)	.	-2	-0.2	.	.
COc1cc(OC)nc(Oc2cccc(C(F)(F)F)c2)n1	.	-7	-1.4	.	.
Nc1nc(-c2ccc3c(c2)OCCO3)c(CC(=O)O)s1	.	4	-2.4	.	.
COc1ccccc1NC(=O)COc1ccc(-c2nn(C)c(=O)c3ccccc23)cc1	.	18	1.9	.	.
COc1ccccc1N1CCN(C2CC(=O)N(c3ccc(F)cc3)C2=O)CC1 (centres undefined)	.	-1	-1.6	.	.
CN1CCN(c2ccccc2NC(=O)c2ccc(-c3ccc(Br)cc3)o2)CC1	.	?	3.2	.	.
O=C1C(C=Nc2ccccc2)=C(O)c2ccccc21	-2	3	3.1	-15	-10%
CCC1(c2ccccc2)NC(=O)N(CC(=O)Nc2ccc3c(c2)OCO3)C1=O (centres undefined)	-42	1	0.9	-4	-6%
C/C(CCc1ccccc1)=N\NC(=O)c1ccccc1	-27	14	2.3	-7	3%
CCN1CCN(C(=O)c2cc(S(=O)(=O)Nc3ccc(S(C)(=O)=O)cc3)ccc2Cl)CC1	.	1	-2.1	5	9%
Cc1ncc(CN2CCN(C(C)C)C(CCO)C2)s1 (centres undefined)	.	-1	0.4	-4	-3%
COCCN1Cc2cccc(C(=O)Nc3cc(OC)ccc3OC)c2C1=O	-27	-4	-3.9	-6	.
Cc1cccc(OCC(=O)Nc2cccc(O)c2)c1	-7	-8	-0.2	0	-6%
CC(C)C(=O)OCC(=O)Nc1ccc2c(c1)CCC2	-24	-11	-0.4	8	.
CCn1cc(C=C2C(=O)c3ccccc3C2=O)c2ccccc21	-16	.	0.8	-13	-1%
CC(=O)N1CCN(Cc2ccc(Cl)nc2)CC1	.	-3	-1.2	.	.
FC(F)(F)c1cccc(-n2cccc2/C=N/n2cnnc2)c1	-42	-3	1.5	4	1%
NNC(=O)c1cccc(Cn2cc(Br)c([N+](=O)[O-])n2)c1	.	-1	1.7	.	-5%
COC(=O)C(Nc1ccccc1Cl)(c1cc(C)c(O)c(C)c1)C(F)(F)F (centres undefined)	-25	-6	-3.0	-40	2%
C=CCOc1ccc(C2NC(=S)NC3=C2CCc2ccccc23)cc1 (centres undefined)	.	8	2.0	.	0%
CCOc1nc(Nc2ccc(OC)cc2)nc(N2CCOCC2)n1	.	-4	2.2	6	-8%
Oc1ccccc1C1=Nc2ccccc2N=C(c2cccs2)C1	-3	60	.	28	2%
(continued)
SMILES	YopH inh	Mtb betalactam	RecA intein inh	Arbovirus anti	Mtb growth	others
Cc1ccc(CC(=O)N(C)CC(=O)Nc2ccc(N3CCOCC3)cc2)cc1C	.	-3	-0.5	.	.
CCOc1ncccc1C(=O)OCC(=O)Nc1ccc(C(C)C)cc1	.	-4	2.4	4	-2%
Cc1ccc(C(=O)N/C(=C\c2ccco2)C(=O)NCCCn2ccnc2)cc1C	-43	-9	4.5	3	-18%
Cc1onc(C(=O)N2CCC(Cc3ccccc3)CC2)c1[N+](=O)[O-]	.	-8	-0.1	.	.
CCC(Sc1nc2ncccc2[nH]1)C(=O)NCCc1ccccc1 (centres undefined)	.	4	1.6	.	.
O=[N+]([O-])c1ccc(N2CCCCC2)nc1N1CCCCC1	.	2	9.1	.	0%
CC(C)CC(c1nnnn1C1CCCCC1)N1CCN(c2ncccn2)CC1 (centres undefined)	-35	3	7.9	2	-2%
Cc1cc(C)c(NC(=O)CCCN2CCCC2)c(C)c1	.	-3	-1.2	.	.
O=C(CNCc1ccccc1)Nc1cccc(Cl)c1Cl	.	3	-1.7	.	.
O=S(=O)(c1cccc2nsnc12)N1CCN(C/C=C\c2ccccc2)CC1	4	4	0.8	-3	-2%
O=C(Cn1c(C(F)(F)F)nc2ccccc21)NCCN1CCCC1	-29	-15	-2.3	-2	-10%
Cc1cc(NC(=O)CSc2nc3c([nH]c4ccccc43)c(=O)n2-c2cccc(C(F)(F)F)c2)no1	-6	.	-2.2	4	21%	Arbovirus anti repeat=-1
Cc1ccnc(NS(=O)(=O)c2ccc(NC(=O)c3oc4ccc(F)cc4c3C)cc2)n1	.	-5	-1.5	.	.
CN1CCN(C2=C(NS(=O)(=O)c3ccccc3)C(=O)c3ccccc3C2=O)CC1	.	1	4.9	.	.
CCOC(=O)c1c(-c2ccc(OC)cc2)csc1/N=C/N(C)C	8	3	1.9	-6	8%
CC(C)N(C(=O)Cn1c(SCC(=O)NCc2ccc3c(c2)OCO3)nc2ccccc21)C(C)C	-14	-3	1.2	-10	-8%
O=C(c1ccc(S(=O)(=O)N2CCCCC2)cc1)N1CCN(Cc2ccc3c(c2)OCO3)CC1	3	.	0.0	-2	0%
CCNC(=O)NC(=O)C(C)OC(=O)c1cccn1C (centres undefined)	.	-3	1.5	1	4%
COc1ccc(C(CNC(=O)COc2cc(C)c(Cl)c(C)c2)N2CCCCC2)cc1 (centres undefined)	.	2	6.8	.	.
CCC(=O)N(Cc1ccc2c(c1)OCO2)Cc1cc2cc(OC)ccc2[nH]c1=O	-35	-3	-3.2	-2	-7%
COCCN(C)C(=O)CCc1nnc(Cc2ccc(-c3ccccc3)cc2)o1	.	-12	-0.1	10	0%
COc1ccc(N2CCN(C(=O)CSc3ccc([N+](=O)[O-])cc3)CC2)cc1	.	-13	-2.1	-3	1%
Cc1cc(OCC(F)(F)C(F)(F)C(F)(F)C(F)F)nc(N)n1	-16	-7	-1.3	8	0%
CCOC(=O)c1cnc2c(-c3ccc(Cl)cc3)c(C)nn2c1N	-3	-1	.	-21	2%
CCC(C)NC(=O)C1CCN(S(=O)(=O)c2ccc(Br)s2)CC1 (centres undefined)	-12	-9	-2.2	-4	-8%

Ordered by molecular weight (lowest first): part of the list above
SMILES	YopH inh	Mtb betalactam	RecA intein inh	Arbovirus anti	Mtb growth	others
Cc1cc(C)c(NC(=O)CCCN2CCCC2)c(C)c1	.	-3	-1.2	.	.
Cc1onc(C(=O)N2CCC(Cc3ccccc3)CC2)c1[N+](=O)[O-]	.	-8	-0.1	.	.
Cc1ccc(C(=O)N/C(=C\c2ccco2)C(=O)NCCCn2ccnc2)cc1C	-43	-9	4.5	3	-18%

(cont.)
SMILES	YopH inh	Mtb betalactam	RecA intein inh	Arbovirus anti	Mtb growth	others
Clc1ccc(CN2CCSCC2)cc1Cl	.	-4	0.7	.	.
COc1ccc(-c2noc(N3CCC(C(=O)Nc4cc(OC)ccc4OC)CC3)n2)cc1	.	0	1.6	.	.
COc1ccc(C2C(C(=O)O)CC(=O)N2c2ccc(OC)cc2)cc1 (centres undefined)	-39	-2	-0.8	4	-5%
Cc1ccnc(NC(=S)NC(=O)c2cncc(Br)c2)c1	-19	-2	2.2	-3	-1%
COc1cccc(C(=O)Oc2c(Br)cc(Br)cc2/C=N/NC(=O)c2cc(C)[nH]n2)c1	.	62	0.7	-25	3%
O=C(N/N=C/c1cccnc1)c1ccc(O)cc1	.	-2	-1.7	.	.
O=C(NCC(=O)N1CCC2(CC1)NCCc1[nH]cnc12)c1ccc2ccccc2c1	.	-2	-1.0	.	.
O=C(Cc1ccccc1F)c1ccc(O)cc1O	.	-1	1.0	2	11%
Nc1nc(SCc2ccccc2)n[nH]1	.	3	-3.3	.	1%
Cc1[nH]c(=O)[nH]c(=O)c1S(=O)(=O)N1CCC(C(=O)NC(C)c2ccccc2)CC1 (centres undefined)	10	1	0.1	1	-3%
CNc1nc(OC)nc(N(C#N)CN2C(=O)c3ccccc3S2(=O)=O)n1	.	6	7.6	2	-2%
CN(CC(=O)Nc1ccccc1Cl)C(=O)COC(=O)c1ccccc1[N+](=O)[O-]	.	0	5.9	.	.
COc1ccc(C(=O)O/N=C2\CCS(=O)(=O)c3sccc32)cc1	.	1	-3.1	0	-4%
COCCNC(=O)C(c1ccc(Cl)cc1)N(Cc1ccco1)C(=O)CCC(=O)Nc1ccccn1 (centres undefined)	.	-9	3.0	.	.
CCOC(=O)N1CCc2c(sc3c2c(=O)n(-c2ccc(CC)cc2)c(=O)n3CC(=O)NCC2CCCO2)C1 (centres undefined)	.	-2	0.8	.	.
O=C(c1ccc2nc(Cc3ccccc3F)oc2c1)N1CCCC1	.	-5	0.1	.	.
NS(=O)(=O)c1ccc(N/N=C/c2ccccc2C(=O)O)c([N+](=O)[O-])c1	.	-4	1.2	4	-2%
COc1ccc(N2CCN(C(=O)CSc3nnc(CNc4ccccc4)o3)CC2)cc1	-27	87	-2.7	2	-1%

Structures listed so far containing a cyano group (2):
SMILES	YopH inh	Mtb betalactam	RecA intein inh	Arbovirus anti	Mtb growth	others
COCc1[nH]nc2c1C(c1cccc(OC)c1)C(C#N)=C(N)O2 (centres undefined)	1	-12	57*	-3	-1%
CNc1nc(OC)nc(N(C#N)CN2C(=O)c3ccccc3S2(=O)=O)n1	.	6	7.6	2	-2%

Random excerpt: two records from the list.
SMILES	YopH inh	Mtb betalactam	RecA intein inh	Arbovirus anti	Mtb growth	others
COCc1[nH]nc2c1C(c1cccc(OC)c1)C(C#N)=C(N)O2 (centres undefined)	1	-12	57*	-3	-1%
O=S(=O)(c1cccc2nsnc12)N1CCN(C/C=C\c2ccccc2)CC1	4	4	0.8	-3	-2%

Source: PubChem BioAssay
